Screening results as filed in PubChem.
Hsc70 = Hsc70 inhibitors, probe displacement, primary screen, biochemical, fluorescence polarization (AID 568). Heat shock cognate 71 kDa protein (Homo sapiens). 83,000 tested, under 10 active. Hsc70 fluorescence polarization, probe displacement; higher % means a stronger effect; strong numbers were not always called active. displacement, % at 20 µM, or IC50 in µM where a hit was titrated;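 active means displacement above 50% without optical interference and an IC50 on retest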;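 further: ATPase domain with a fluorescein-tagged ATP probe; 0% = vehicle and 100% = excess ADP; read after one hour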
WNV NS2B-NS3 inh = inhibitors of WNV NS2B-NS3 protease, primary screen, biochemical, fluorogenic substrate | Genome polyprotein (West Nile virus), P06935 | fluorogenic substrate Ex360/Em465; stronger effect = lower value | z-score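 (tested at a level between 10 and 100 µM)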 | hit rate 0.18% among 65,000 | AID 577, 2007;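 active means z-score at -3 or under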;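 further: score is relative to mean and spread of the compound wells of a plate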
Target sequence (P06935 1371-1501 limits assumed): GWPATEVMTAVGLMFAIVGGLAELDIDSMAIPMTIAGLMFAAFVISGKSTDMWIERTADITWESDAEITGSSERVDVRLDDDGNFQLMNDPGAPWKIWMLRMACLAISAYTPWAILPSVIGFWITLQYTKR
Target sequence (P06935 1502-1679 limits assumed): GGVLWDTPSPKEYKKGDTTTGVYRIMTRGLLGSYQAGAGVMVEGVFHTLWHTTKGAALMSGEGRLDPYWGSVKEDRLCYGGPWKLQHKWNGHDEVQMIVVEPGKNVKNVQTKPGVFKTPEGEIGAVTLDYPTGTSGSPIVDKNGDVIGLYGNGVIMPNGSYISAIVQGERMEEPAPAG
MT1-MMP reporter = inhibitors of MT1-MMP promoter transcription, cell-based, luciferase reporter, luminescence (AID 618); hit rate 0.62% among 87,000; calls from a first round at 10 µM; hits with a dose series show EC50 in µM; MT1-MMP promoter luciferase reporter cells, luminescence;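 active means over half of the reporter light lost at 10 µM or EC50 under 50 µM; inactive means the rest and hits that failed the dose series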;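 further: actives suppress MT1-MMP promoter-driven transcription so potencies describe inhibitors; HT1080 fibrosarcoma cells; overnight exposure; toxic or luciferase-blocking compounds were not removed from the actives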
The depositor's hits bear a star; i = inactive; / = no result given; + = active, no number.

SMILES | Hsc70 | WNV NS2B-NS3 inh | MT1-MMP reporter
Nc1c(C(=O)NCCN2CCOCC2)c2nc3ccccc3nc2n1CCc1ccccc1 | -1.1% | 0.19 | i
CC(C)c1nc2oc3c(=O)[nH]cnc3c2c2c1CCC2 | 3.3% | -0.56 | i
COCc1c(C(=O)N2CCN(c3ccc(C(F)(F)F)cn3)CC2)oc2ccccc12 | 2.6% | / | i
O=C(CC1C(=O)OCN1C(=O)OCc1ccccc1)OCC(=O)c1ccccc1 (stereo unspecified) | 3.1% | -0.37 | i
Cc1ccc(NC(=O)Cn2cnc3sc(C(=O)NCc4ccco4)c(C)c3c2=O)cc1Cl | -3.7% | / | i
CCCCNC(=O)Nc1ccc(Br)cn1 | 7.8% | 1.3 | i
COC(=O)c1[nH]c2ccc(Cl)cc2c1NC(=O)C1CC1 | 6.9% | 0.6 | i
CC1=C(C(=O)OCCOC(C)C)C(c2cc3c(cc2Br)OCO3)CC(=O)N1 (stereo unspecified) | 1.6% | / | i
C=CCn1c(=O)c(C(=O)Nc2nnc(C)s2)c(O)c2ccccc21 | -12.4% | -0.45 | i
COc1cccc(N2CC(O)=C(c3ccccc3)C2=N)c1 | -2.7% | / | i
CCOC(=O)N1CCN(C(=O)CS(=O)(=O)c2cn(Cc3ccc(F)cc3)c3ccccc23)CC1 | 3.3% | -1.86 | i
COc1ccccc1NC(=O)c1cc(Cl)ccc1NC(=O)c1ccco1 | 7.9% | -2.99 | i
O=C(O)c1ccccc1NC(=O)C1CCCO1 (stereo unspecified) | -3.8% | -0.32 | i
COc1cccc(C2C3CN(C)CC=C3C(C#N)=C(N)C2(C#N)C#N)c1OC (stereo unspecified) | 90.4% | 0.42 | i
C=CCN(C(=O)COc1ccccc1)c1nnc(-c2ccncc2)s1 | 0.8% | / | i
CCn1nnnc1SCC(=O)Nc1cccc(C)n1 | 0.6% | -1.06 | i
CCOC(=O)CNC(=O)C(NC(=O)C1CCC(C)CC1)C(C)CC (stereo unspecified) | -1.0% | -0.43 | i
COC(=O)c1ccc(CS(=O)(=O)c2ccccc2C)o1 | 1.2% | 0.12 | i
O=c1oc2ccccc2cc1-c1nnc(-c2cccc(Br)c2)o1 | -6.4% | 1.46 | i
Cn1c(=O)c2c(nc(N3CCOCC3)n2CC(=O)c2ccccc2)n(C)c1=O | -1.0% | 1.43 | i
COc1ccccc1-c1cc(C(F)(F)F)nc(S(=O)(=O)CCCC(=O)Nc2cc(C)on2)n1 | 5.7% | 1.05 | i
Cc1cc(C)n(-c2nc(NC(C)(C)C)nc(NC(C)(C)C)n2)n1 | -6.4% | -0.56 | i
[O-]/[N+](=C\c1ccncc1)c1ccccc1 | 102.0% | -0.58 | i
COc1ccc(S(=O)(=O)N2CCN(S(=O)(=O)c3ccc4c(c3)OCCO4)CC2)cc1 | -6.3% | 1.8 | i
Cn1cccc1P(=O)(c1cccn1C)c1cccn1C | -3.3% | 0.23 | i
Cc1cc(C)cc(-n2nnnc2SCC(=O)N2CCOCC2)c1 | 1.7% | / | i
COc1ccccc1N1CCN(C(=O)c2ccc(S(=O)(=O)N3CCCC3)cc2)CC1 | 7.8% | -0.19 | i
Cn1c(=O)c2c(nc(N3CCCCCC3)n2Cc2cccc3ccccc23)n(C)c1=O | -5.2% | -1.13 | i
COc1ccc(OC)c2[nH]c(=O)c(CCNC(=O)COc3ccccc3)cc12 | 1.3% | 0.78 | i
COc1ccc(-c2cc(C(F)(F)F)nc(SCCC(=O)NCc3ccco3)n2)cc1 | 1.7% | -0.79 | i
COc1ccc(-c2nc(-c3ccccc3)no2)c(OC)c1 | 3.8% | -0.18 | +
O=C(O)C1C2C=CC3(CN(Cc4ccncc4)C(=O)C13)O2 (stereo unspecified) | 4.9% | -1.04 | i
O=C(O)c1ccc(Cl)cc1NC(=O)C1CCCO1 (stereo unspecified) | 4.6% | -0.37 | i
COc1ccc(S(=O)(=O)N(C)CC(=O)NC2CCCCC2)cc1OC | 3.8% | -0.18 | i
CCCCN1CC(C(=O)NC2CCCCC2)CC1=O (stereo unspecified) | -3.7% | 1.06 | i
COc1ccc(OC)c(NC(=O)CSc2nnc(Cn3nnc4ccccc43)n2C)c1 | -4.2% | / | i
COc1cccc(-c2cc(C(=O)N3CCCc4ccccc43)no2)c1 | 1.8% | -1.02 | i
Cc1cc(C#N)c(C)n1-c1cc(S(=O)(=O)N2CCOCC2)ccc1N1CCCC1 | 1.6% | / | i
COC(=O)c1[nH]c2cc(OC)ccc2c1NC(=O)CCN1CCSCC1 | -1.5% | / | i
CCn1cc(C(=O)N2CCN(C3CCCCC3)CC2)c2cc(OC)c(OC)cc2c1=O | -2.6% | 0.44 | i
CCn1c(COc2ccccc2)nnc1SCC(=O)CC(=O)Nc1ccccc1OC | 0.5% | -1.05 | i
Cn1c(SCCCC(=O)c2ccc(F)cc2)nnc1-c1ccncc1 | -3.7% | / | i
CCOC(=O)c1c(NC(=O)CSc2nnc(CNC(=O)c3ccco3)n2C)sc2c1CCC2 | -5.3% | 1.69 | i
Cc1ccc(-c2csc(N3CCC(C(N)=O)(N4CCCCC4)CC3)n2)cc1 | -1.3% | 1.08 | i
CCCOC(=O)Cc1n[nH]c(=O)[nH]c1=O | -0.8% | -0.52 | i
COc1cc2cc(C(=O)O)n(C)c2c(OC)c1OC | 2.2% | 0.05 | i
C=CCOc1ccc2ccccc2c1/C=N/O | 3.6% | / | i
O=C(CSc1ncnc2sc3c(c12)CCCC3)N1CCC(c2noc3ccc(F)cc23)CC1 | -1.3% | -1.07 | i
CCOC(=O)c1cccc(NC(=O)CSc2nnc(-c3cccnc3)n2CC)c1 | 3.7% | -0.98 | i
CCn1c(Cc2ccccc2)nnc1SCC(=O)Nc1ccc2c(c1)OCCO2 | 2.3% | -1.4 | i
Cc1nc2ccc(Cc3ccc4nc(C)[nH]c4c3)cc2[nH]1 | 0.7% | / | i
Cc1c(Br)c(=O)[nH]c(=O)n1COCc1ccccc1 | 2.4% | 0.29 | i
COC(=O)c1[nH]c2cccc(C)c2c1NC(=O)CN1CCCc2ccccc21 | -4.7% | -0.31 | i
CCOc1ccc(NC(=O)CN2C(=O)COc3ccc(Cl)cc32)cc1 | 6.1% | 0.46 | i
COc1ccc2nc3oc(C(=O)N4CCC(C(N)=O)CC4)cc3cc2c1 | -4.2% | -0.31 | i
Nc1ccc(C(=O)OCc2nc3ccccc3[nH]2)cc1 | -3.1% | -0.73 | i

Reformatted as labelled records: part of the list above
compound: O=C(CC1C(=O)OCN1C(=O)OCc1ccccc1)OCC(=O)c1ccccc1 (stereo unspecified)
  Hsc70 = 3.1%
  WNV NS2B-NS3 inh = -0.37
  MT1-MMP reporter = i

compound: Cc1cc(C#N)c(C)n1-c1cc(S(=O)(=O)N2CCOCC2)ccc1N1CCCC1
  Hsc70 = 1.6%
  WNV NS2B-NS3 inh = /
  MT1-MMP reporter = i

Continuation:
SMILES | Hsc70 | WNV NS2B-NS3 inh | MT1-MMP reporter
Nc1ccc(S(=O)(=O)c2cccc(N)c2)cc1 | 3.1% | 0.15 | i
COCCNCC(=O)C12CC3CC(CC(C3)C1)C2 | -1.6% | -1.1 | i
CCC(=O)N1CCN(c2ccc(NC(=O)c3cc4ccccc4o3)cc2)CC1 | -3.4% | / | i
O=C(C1COc2ccccc2O1)N1CCN(c2ccccc2F)CC1 (stereo unspecified) | 1.2% | -0.76 | i
Cn1c(=O)c2c3c(sc2n2c(SCC(N)=O)nnc12)CC(C(C)(C)C)CC3 (stereo unspecified) | -4.3% | 0.05 | i
Cc1c(NS(=O)(=O)c2ccc3c(c2)n(C)c(=O)n3C)c(=O)n(-c2ccccc2)n1C | 0.9% | 0.11 | i
CN(C)S(=O)(=O)c1ccc(-c2ccccc2)cc1 | -1.9% | -0.21 | i
CN(C)c1ccc(C2N(c3cccc(Cl)c3)C(=O)C3CCCN32)cc1 (stereo unspecified) | 1.6% | 0.33 | i
COc1ccccc1N1CCN(C(=O)Cn2nnc(-c3ccncc3)n2)CC1 | 0.2% | 0.18 | i
CCOc1ccc2nc(SCC(=O)c3ccccc3)sc2c1 | -0.4% | / | i
CCS(=O)(=O)N1CCCC(C(=O)NCc2ccccc2Cl)C1 (stereo unspecified) | -4.2% | -0.33 | i
COc1ccccc1N1CCN(c2nc(C)nc3c2oc2ccccc23)CC1 | -1.8% | -0.5 | +
Cc1ccc(O)c(-c2cc(-c3cccc(F)c3)n[nH]2)c1 | 5.9% | / | i
NC(=O)COc1ccc(C2c3c(oc4ccccc4c3=O)C(=O)N2CC2CCCO2)cc1 (stereo unspecified) | -0.6% | -0.00479 | i
CCOC(=O)N1CCN(c2nc(=S)n(-c3ccccc3)c(C)c2C(C)=O)CC1 | 3.5% | 1.17 | i
Cc1ccccc1Oc1cccc(C(=O)/C(C#N)=C/N(C)C)c1 | 2.3% | / | i
O=c1oc2ccccc2c2c1SC(C(F)(F)F)C2 (stereo unspecified) | 5.5% | / | i
COc1ccc(S(=O)(=O)N(Cc2cc3cc(C)ccc3[nH]c2=O)CC2CCCO2)cc1 (stereo unspecified) | 1.8% | / | i
O=S(=O)(c1ccccc1)N(Cc1nc(-c2ccccc2)no1)C1CCCCC1 | -0.9% | 0.07 | i
Cc1ccc(Cn2nnc3c(=O)[nH]c(C(=O)NCc4ccco4)nc32)cc1 | 1.1% | -0.89 | i
COc1ccccc1/C=N/n1cnnc1 | 2.4% | 3.14 | i
CN(C)c1ccc(CNc2ccc3c(c2)ncn3C)cc1 | -2.7% | / | i
O=S(=O)(c1ccccc1)c1nc(-c2ccco2)oc1NCc1ccccc1 | -4.2% | / | i
CC(=O)Nc1cccc(OC(=O)N2CCOCC2)c1 | 2.3% | -0.21 | i
CCN(CC)CCNc1ncnc2c1[nH]c1ccc(OC)cc12 | 2.9% | -1.84 | i
Cc1ccc(-n2nnnc2SCC(=O)c2cc(C)n(-c3cc(C)on3)c2C)cc1 | -2.7% | 0.84 | i
CC(C)CNc1nc(Oc2ccc(=O)n(C)n2)nc(N2CCOCC2)n1 | -0.1% | 0.63 | i
CCOC(=O)c1c(C(C)(C)C)oc2ccc(O)cc12 | 5.5% | / | i
Cc1ccc(S(=O)(=O)NCC(=O)OC(C)C(=O)Nc2ncc(Cl)cc2Cl)cc1 (stereo unspecified) | 2.5% | / | i
Cc1cc(C)nc(NC(=O)c2ccc(Cl)c(Cl)c2)n1 | -0.3% | / | i
Clc1ccc(-c2nn3c(-c4ccncc4)nnc3s2)c(Cl)c1 | -2.7% | -0.42 | i
Cn1c(=O)cc(OCCCC(=O)N2CCN(Cc3ccc4c(c3)OCO4)CC2)c2ccccc21 | 4.7% | -0.06 | i
CCOC(=O)N1CCN(S(=O)(=O)c2ccc(OCC)c(C)c2)CC1 | 5.0% | -0.74 | i
COc1cc(C(=S)N2CCCC2)ccc1O | 0.2% | 0.79 | i
COC(=O)CN1C(=O)CSc2ncccc21 | -3.0% | -1.07 | i
COc1ccccc1-c1cc(N)n(S(=O)(=O)c2ccc(F)c(C)c2)n1 | -2.9% | -0.97 | i
Cc1ccc(-c2nnn(CC(=O)N(CC(=O)NC3CCCC3)c3ccc(F)c(Cl)c3)n2)o1 | 1.7% | / | i
Cc1[nH][nH]c(=O)c1N=Nc1ccccc1 | 0.5% | / | i
O=C(COC(=O)c1ccc(F)cc1)Nc1ccccc1N1CCOCC1 | 4.7% | / | i
COc1ccc2nc(Nc3nc(C)c(C(C)=O)s3)sc2c1 | -6.1% | 0.54 | i
CCOC(=O)CSC1=C(C#N)C(c2ccco2)C(C(=O)Nc2cccc(C(F)(F)F)c2)=C(C)N1 (stereo unspecified) | -3.0% | -1.12 | i
CC(Nc1ccc(Cl)cc1)c1cc(Cl)ccc1O (stereo unspecified) | 5.5% | / | i
O=C(Nc1nccs1)C1CCCN(S(=O)(=O)c2cccnc2)C1 (stereo unspecified) | -3.9% | 0.03 | i
O=C(Nc1cnccn1)C1c2ccccc2Oc2ccccc21 | 2.5% | -0.35 | i
CCCS(=O)(=O)N1CCC(C(=O)NCC2CCCO2)CC1 (stereo unspecified) | 0.6% | 0.69 | i
c1ccc(C2C3=C(CCCC3)Nc3ncnn32)cc1 (stereo unspecified) | 2.3% | 1.27 | i
Clc1ccc(-c2nnc3cccc(Cl)n23)c(Cl)c1 | 0.9% | / | i
O=C1CCC(c2ccccc2)N1C(=O)c1cccnc1 (stereo unspecified) | 8.0% | 0.51 | i

Reprinted from the part before: 3 compounds, followed by the next part.
SMILES | Hsc70 | WNV NS2B-NS3 inh | MT1-MMP reporter
c1ccc(C2C3=C(CCCC3)Nc3ncnn32)cc1 (stereo unspecified) | 2.3% | 1.27 | i
Clc1ccc(-c2nnc3cccc(Cl)n23)c(Cl)c1 | 0.9% | / | i
O=C1CCC(c2ccccc2)N1C(=O)c1cccnc1 (stereo unspecified) | 8.0% | 0.51 | i
Cc1no[n+]([O-])c1COc1ccc(/C=C2\NC(=S)NC2=O)cc1 | -12.8% | / | i
CN(C)c1nc(SCCOC(=O)COc2ccc(Cl)cc2Cl)nc(N(C)C)n1 | -0.3% | -0.28 | i
Cc1cccc(N2CCN(C(=O)C3CCCN(S(=O)(=O)c4cccc5cccnc45)C3)CC2)c1C (stereo unspecified) | -4.1% | -0.54 | i
CCN(Cc1ccccc1)CC(O)COc1ccccc1 (stereo unspecified) | 0.3% | / | i
COc1ccc2c3c(c(=O)oc2c1OCC(N)=O)CCCC3 | -3.2% | 0.05 | i
